From PubChem
ALR inh = inhibitors of human sulfhydryl oxidase ALR; P55789; 290,000 tested, 3.8% active; purified ALR, DTT oxidation, H2O2 HRP-luminol luminescence; inhibition, % (concentration not given with the values);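 active means mean and each replicate at 75% or more; inconclusive means only one of the two met; inactive means neither met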;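 further: stock transfer was 7.5 nL into about 7.5 µL; 0% = neutral wells and 100% = wells with inactivated enzyme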
Target sequence (P55789 whole entry, looked up): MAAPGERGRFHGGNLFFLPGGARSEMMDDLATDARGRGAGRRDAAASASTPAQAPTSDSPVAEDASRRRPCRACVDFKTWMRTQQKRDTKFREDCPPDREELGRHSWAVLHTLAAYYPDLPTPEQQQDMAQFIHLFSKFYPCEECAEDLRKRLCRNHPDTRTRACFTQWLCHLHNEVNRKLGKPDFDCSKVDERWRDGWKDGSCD
Beta cell apopt = beta cell apoptosis inhibition; INS-1E cytokine-induced death, ATP luminescence, 48 h; percent of positive-control rescue, neutral wells zero; protection from apoptosis, % (test concentration not listed); 300,000 tested, 0.8% active;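 active means all replicates at 75% or more, or half of them and the mean; inconclusive means half reach 75% but not the mean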;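 further: 0% = cytokine-treated negative control wells and 100% = positive control rescue; higher means more ATP so stronger rescue from cytokine killing; wells of about 40 µL received 100 nL stock; the first replicate is given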
Calb FLC = affects C. albicans growth with fluconazole; 300,000 tested, 0.57% active; C. albicans CaCi-2 (fluconazole-resistant clinical isolate) + fluconazole, Alamar Blue growth, 48 h; growth inhibition, % (concentration not given with the values);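 active means most replicates above 75%; inconclusive means exactly half above 75%; inactive means most below 75%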;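 further: all wells also contain fluconazole at 8 µg/ml as a sub-toxic cotreatment; 0% = median of DMSO wells and 100% = median of geldanamycin control wells; wells of about 8 µL received 7.5 nL stock; the first replicate is given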
MLL AF4-AF9 inh = blocks AF4 peptide binding to human AF9. AID 651704. 350,000 tested, 0.47% active. inhibition, % at 10 µM. AlphaScreen, biotin-AF4 peptide binding to FLAG-AF9. P42568;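 active means every replicate reaching a set inhibition limit, whatever the replicate mean, cut at about 25% in these data; inconclusive means mean inhibition reaches that limit but some replicates miss it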;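 further: 0% = plate neutral control median and 100% = total signal loss; the record names both 10 and 1 µM as test concentration; the first replicate is given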
Target sequence (P42568 whole entry, looked up): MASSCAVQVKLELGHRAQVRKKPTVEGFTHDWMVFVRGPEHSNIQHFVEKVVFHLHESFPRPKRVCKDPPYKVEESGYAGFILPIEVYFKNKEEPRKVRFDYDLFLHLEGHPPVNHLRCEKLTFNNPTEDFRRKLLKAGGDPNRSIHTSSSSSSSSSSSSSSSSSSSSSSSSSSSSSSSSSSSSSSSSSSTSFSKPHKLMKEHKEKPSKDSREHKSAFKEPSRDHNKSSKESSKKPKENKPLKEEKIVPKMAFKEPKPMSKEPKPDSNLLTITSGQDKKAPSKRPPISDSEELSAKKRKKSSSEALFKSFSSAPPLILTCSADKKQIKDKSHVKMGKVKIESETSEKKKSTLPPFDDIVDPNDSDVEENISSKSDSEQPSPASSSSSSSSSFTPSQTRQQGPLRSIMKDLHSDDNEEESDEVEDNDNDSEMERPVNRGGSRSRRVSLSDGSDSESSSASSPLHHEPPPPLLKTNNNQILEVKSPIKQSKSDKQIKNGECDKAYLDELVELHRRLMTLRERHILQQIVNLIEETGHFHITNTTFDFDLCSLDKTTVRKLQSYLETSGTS
RanGTP-Imp inh = inhibitors of RanGTP-importin-beta interaction, primary screen, biochemical, FRET, CFP-Ran, YFP-importin-beta, homogeneous | cell-free CFP-Ran/YFP-importin-beta FRET ratio | inhibition, % (test concentration not listed) | 300,000 tested, 1.1% active;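 active means most replicates above 15%; inconclusive means exactly half above 15%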;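 further: 0% = DMSO wells and 100% = Ran loaded with GDP instead of GTP; wells of about 40 µL received 100 nL stock; the first replicate is given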
FGF22 binding = FGF22 (human) thermal shift binding; calls only at 9.99 µM; AID 651658; Q9HCT0; recombinant FGF22 thermal shift, SYPRO orange fluorescence; percent of sucrose octasulfate shift, DMSO zero; 340,000 tested, 1.5% active;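 active means melting point raised past a set limit in the mean and every replicate; inconclusive means no clear call; three in four hits are not shown here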
Target sequence (Q9HCT0 whole entry, looked up): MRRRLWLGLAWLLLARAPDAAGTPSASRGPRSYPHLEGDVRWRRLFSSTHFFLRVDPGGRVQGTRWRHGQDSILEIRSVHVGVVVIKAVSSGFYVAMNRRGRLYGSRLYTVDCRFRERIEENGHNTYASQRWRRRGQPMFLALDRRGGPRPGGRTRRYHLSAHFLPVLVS
rRNA inh HTS = selective bacterial rRNA inhibition in E. coli | E. coli WT GFP vs humanized-ribosome RFP mutants, fluorescence, 24 h; stronger effect = lower value; DMSO median 0, no signal -100 | GFP signal change (wild-type ribosome), % (concentration not given with the values) | 350,000 tested, 1.6% active | AID 720706;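 active means significant combined selectivity score with lowered wild-type GFP, culture density cut under 30%, mutant RFP and density less affected; inactive means any of these conditions unmet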; further: one replicate is shown; some compounds called inactive have numbers as strong as hits
T cruzi repl = T. cruzi replication inhibition; inhibition, % (test concentration not listed); T. cruzi beta-gal in NIH3T3, luminescence, 90 h; 300,000 tested, 1.4% active;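 active means mean inhibition across valid replicates above about 55%, limit read from the data; inconclusive means mean below that limit but half or more replicates reach it; inactive means mean below it, under half of replicates reach it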;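 further: signal also drops with host cell toxicity which is not excluded here; 0% = plate median of DMSO wells and 100% = zero luminescence signal; higher percent means less beta-gal luminescence so fewer parasites; stock transfer was 50 nL into about 50 µL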
rRNA inh HTS OD600 = further read-out of rRNA inh HTS, marked with its call; OD600 change, %; measured here: OD600 growth;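 optical density of the mix in the first replicate; 0 = DMSO median and -100 = no signal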
rRNA inh HTS RFP = also measured in rRNA inh HTS; calls as there; RFP signal change, %; measured here: RFP humanized mutant strains;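 first replicate; 0 = DMSO median and -100 = no signal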
Active calls of the source: *; i = inactive; ? = inconclusive; . = no result given.

SMILES | ALR inh | Beta cell apopt | Calb FLC | MLL AF4-AF9 inh | RanGTP-Imp inh | FGF22 binding | rRNA inh HTS | rRNA inh HTS OD600 | rRNA inh HTS RFP | T cruzi repl
CC(NC(=O)c1c(F)cccc1Cl)c1ccc(-n2ccnc2)cc1 (stereo not drawn) | -1 | 1 | 24 | 0.7 | 4.9 | i | 5 | 0 | -0.9 | -6
CC(=O)c1c(C)[nH]c(C(=O)NC2=NCCS2)c1C | 25 | . | -9 | . | 1.2 | . | . | . | . | -6
OCC1(CCOc2ccccc2)CCN(Cc2cccn2-c2ncccn2)CC1 | 2 | 11 | -42 | 3.3 | -1.3 | i | 19 | 12 | 6.0 | 16
COc1ccc(-c2c(C(F)(F)F)oc3c(CN4CCN(C)CC4)c(O)ccc3c2=O)cc1 | -4 | -2 | -16 | . | 1.9 | . | . | . | . | -63
C/C(=N\NC(=O)c1ccc(NS(=O)(=O)c2cccs2)cc1)c1ccc(O)cc1O | 99* | 8 | -4 | 5.7 | 3.8 | i | -18 | -33 | -7.0 | -7
O=C(NCCN1CCOCC1)c1cc(Sc2ccc(F)cc2F)nc2ccccc12 | -7 | -6 | -4 | -1.7 | 0.0 | i | 3 | -3 | -0.7 | 9
COc1cccc(/C=C/C(=O)Nc2ccc3[nH]c(=O)[nH]c3c2)c1 | -5 | 4 | -2 | -3.2 | -1.1 | i | -10 | -7 | -3.0 | -2
O=C(O)CN(c1ccc2c(c1)OCCO2)S(=O)(=O)c1ccccc1 | -2 | . | 5 | . | -5.0 | . | . | . | . | -23
CCOc1ccc(N(C(C)C(=O)NCc2ccco2)S(C)(=O)=O)cc1 (stereo not drawn) | 4 | -6 | -14 | . | 5.0 | . | . | . | . | -12
Cc1ccc(/C=C(\C#N)C(=O)Nc2ccccn2)o1 | -9 | 3 | 26 | -1.2 | ? | i | 12 | 0 | 4.3 | -1
CC(C)Cc1nc2n[nH]c(N)c2c2c1CCC2 | 4 | -20 | 4 | . | -2.2 | . | . | . | . | -8
CN(CCCNS(=O)(=O)c1cccc2cccnc12)Cc1ccccc1 | -35 | -5 | -2 | 2.1 | 1.4 | i | 8 | 8 | 0.6 | 10
Cn1c(SCC(=O)N2CCN(c3ccccc3)CC2)nnc1-c1ccco1 | 0 | 0 | 8 | . | 5.1 | . | . | . | . | 1
COc1ccc(/C=C/CN2CCC(n3nccc3NC(=O)C3CC3)CC2)cc1 | -5 | -2 | 14 | 3.9 | 1.6 | i | 2 | -1 | -0.6 | 0
S=C1NC(c2ccccc2)=NCN1c1ccccc1 | 13 | 1 | -5 | . | 0.4 | . | . | . | . | -15
N#Cc1c(NC(=O)c2ccncc2)sc2c1CCC2 | 10 | -2 | 46 | 7.0 | 6.9 | i | 1 | 7 | 8.2 | -10
COc1ccc(S(=O)(=O)N2CC(=O)Nc3ccccc32)cc1C | -6 | -4 | -3 | 3.0 | 2.7 | i | -15 | -20 | -3.0 | -3
O=C(CCCN=C1NS(=O)(=O)c2ccccc21)OCC(=O)c1ccccc1 | -2 | -1 | -7 | 0.3 | -2.4 | i | 4 | 1 | 1.8 | -8
CCOC(=O)c1[nH]c(C)c(C(=O)OCC(=O)NCc2ccc(OC)c(OC)c2)c1C | -5 | -4 | . | -0.5 | . | i | 1 | 0 | 0.6 | .
N#CC1=C2SCN(Cc3ccccc3)CN2C(=O)CC1c1ccc2c(c1)OCO2 (stereo not drawn) | -18 | . | -2 | . | ? | . | -9 | -8 | 0.8 | -1
CN(C(=O)/C=C/c1ccc2c(c1)OCO2)c1ccccc1 | 12 | 1 | -20 | 5.5 | 7.3 | i | -16 | -24 | 2.1 | -3
Cc1cc(C)nc(NC(=NCCc2c[nH]c3ccccc23)NC(=O)C(C)(C)C)n1 | -2 | 0 | 3 | -0.9 | 0.9 | i | 4 | 5 | 3.4 | 61*
Cc1cc(C)c(S(=O)(=O)Nc2ccccc2C(=O)N2CCOCC2)c(C)c1 | -3 | -8 | -1 | -0.5 | 5.0 | i | 8 | 4 | 3.0 | -7
Cc1ccc(C)c(S(=O)(=O)N2CCN(C(=O)Cn3[nH]c(=O)c4ccccc4c3=O)CC2)c1 | -11 | -2 | 21 | -5.2 | -4.0 | i | 6 | 6 | 0.7 | 1
CC(C)(C)NC(=S)NCCc1ccccc1 | -9 | -5 | 4 | . | -0.9 | . | . | . | . | -23
COc1ccc(OC)c(S(=O)(=O)NC2CCCCC2)c1 | . | . | -8 | -20 | -3.8 | i | -3 | 10 | 2.7 | 5
CCOC(=O)c1sc(NC(=O)Cn2nnc3sc4c(c3c2=O)CCC(C(C)(C)C)C4)nc1C (stereo not drawn) | -3 | -7 | 12 | 0.9 | 7.9 | i | -3 | -14 | -15 | 24
COC(=O)C(Cc1cnc(Cl)s1)(C(=O)OC)c1ccccc1[N+](=O)[O-] | -3 | -6 | 6 | . | -2.1 | . | . | . | . | -4
Cc1ccc(CNc2ccc(CNc3ncn[nH]3)cc2)cc1 | -21 | -12 | -40 | . | -1.6 | . | . | . | . | -2
COc1cc(C)c(CNc2cccc(C)c2)cc1C | 44 | -8 | 1 | -33 | 13 | i | 9 | 10 | 0.7 | -2
Cc1cc(C)n2nc(C(=O)Nc3nccs3)nc2n1 | -5 | -2 | 6 | . | 3.5 | . | . | . | . | 1
O=C1/C(=C\c2ccc(O)c(O)c2)N=C2CCCCCN12 | 99* | -8 | -1 | 1.7 | -0.3 | i | 6 | 11 | -2.2 | -10
O=C1CSC(=Nc2cccc([N+](=O)[O-])c2)N1 | 64 | -1 | -3 | -3.2 | 0.0 | i | 7 | 12 | -3.7 | -5
O=C(O)CCCC(=O)Nc1cccc(C(=O)Nc2ccccc2C(=O)O)c1 | -3 | 0 | -3 | -1.3 | 3.2 | i | 2 | -1 | -2.5 | -13
COc1ccc(S(=O)(=O)N2CCOCC2)cc1NC(=O)CN1CCCCCC1 | -5 | 1 | 1 | -9.2 | ? | i | -1 | 3 | -2.1 | 6
Cc1nnc(NC(=O)c2cccc(F)c2)s1 | -12 | -3 | 0 | . | 5.2 | . | . | . | . | -2

Copied from the list.
MLL AF4-AF9 inh, `COc1ccc(S(=O)(=O)N2CCOCC2)cc1NC(=O)CN1CCCCCC1` reads -9.2
RanGTP-Imp inh, `CC(C)(C)NC(=S)NCCc1ccccc1` reads -0.9

New compounds follow.
SMILES | ALR inh | Beta cell apopt | Calb FLC | MLL AF4-AF9 inh | RanGTP-Imp inh | FGF22 binding | rRNA inh HTS | rRNA inh HTS OD600 | rRNA inh HTS RFP | T cruzi repl
CCOC(=O)n1c(=O)n(C)c2ccc(Br)cc21 | 3 | -2 | 5 | -1.4 | 3.3 | i | 1 | -18 | -2.9 | 8
Cc1ccc(S(=O)(=O)CCC(=O)Nc2ccc(Br)cc2)cc1 | -7 | 0 | 8 | -4.4 | 1.4 | i | -16 | -23 | -15 | -5
CN(C)CCCNc1oc(-c2ccccc2Cl)nc1S(=O)(=O)c1ccccc1 | . | 7 | . | 8.2 | . | i | -2 | 2 | 3.3 | .
O=C(Nc1ncccn1)c1ccc(Cl)c([N+](=O)[O-])c1 | 0 | 0 | 6 | -1.9 | 2.6 | i | 24 | 19 | 4.0 | -4
CC(C)c1ccccc1NC(=O)c1ccc(CN(c2ccccc2)S(=O)(=O)c2ccccc2)cc1 | 2 | 23 | 6 | . | 0.0 | . | . | . | . | 41
O=C(NC(=S)Nc1cccnc1Cl)c1ccc(F)cc1 | -8 | -5 | 5 | -0.4 | 0.9 | i | -12 | -2 | -1.5 | -25
COc1ccccc1/C=C1\SC(=O)N(CC(=O)NCCCn2ccnc2)C1=O | 3 | 1 | 4 | 12 | 4.1 | i | 2 | -4 | -2.7 | -11
O=C(NNC1=C(C(=O)C(F)(F)F)CCC1)c1cccnc1 | 14 | -8 | -18 | 1.4 | ? | i | -4 | -8 | 1.2 | 9
COc1ccc(C(=O)C2CCCN(C(=O)CCc3ccccn3)C2)c(C)c1 (stereo not drawn) | -1 | . | 14 | -0.8 | -0.3 | i | 6 | 5 | 3.0 | 3
CCN(CC)NC(=S)Nc1ccccc1 | 0 | 0 | -29 | . | -1.1 | . | . | . | . | -4
Cc1cc(-n2cnc(-c3cn(C)nc3C)n2)no1 | -3 | -4 | 2 | -1.4 | 7.5 | i | 5 | 5 | -0.9 | -21
c1cc(Nc2cccc3nccnc23)c2nccnc2c1 | 22 | 7 | -1 | 26* | -6.6 | i | -8 | -10 | -3.4 | -1
Cc1cccc(C(=O)NCC(=O)N2CCN(S(=O)(=O)c3ccc4c(c3)OCCO4)CC2)c1 | -1 | -2 | . | -23 | . | i | -2 | 9 | -0.9 | .
COc1ccc(C(=O)/C=C/c2cccc(OCc3ccccc3)c2)cc1CSCC(=O)O | 57 | 0 | 27 | 3.9 | 2.4 | . | -52 | -65 | -14 | 6
Cc1c(CC(=O)NCCCO)c(=O)oc2cc3c(cc12)CCC(C)(C)O3 | -1 | 1 | -5 | -4.7 | 0.2 | i | 9 | 6 | -0.2 | -6
O=C(CCc1ccc(S(=O)(=O)N2CCOCC2)cc1)N1CCCC1 | -13 | 0 | 11 | . | -1.2 | . | . | . | . | -9
CCc1ccc(N/C(=N/c2nc(C)cc(C)n2)NC(C)=O)cc1 | 5 | 14 | . | 2.2 | ? | i | -3 | -10 | -3.2 | 12
CC1=Nc2cc(C(=O)N3CCCCC3)ccc2Sc2ccc(C)cc21 | -11 | . | 2 | 4.3 | 0.9 | i | -5 | -9 | -0.4 | 22
CCNc1nc(SCCOc2ccc(C)cc2)nc(N(C)C)n1 | -13 | -6 | -7 | . | -4.4 | . | . | . | . | 20
CCc1nc2ccccc2c(C(=O)Oc2cccc3cccnc23)c1C | -13 | 13 | 1 | . | -2.1 | . | . | . | . | -7
C/C=C(\CS(=O)(=O)c1ccccc1)S(=O)(=O)c1ccccc1 | 7 | -16 | 20 | . | 3.3 | . | . | . | . | -14
Cc1csc(NC(=O)c2ccco2)c1C(=O)c1ccccc1 | 43 | -4 | 0 | 3.9 | -0.8 | i | 5 | 8 | -0.7 | 7
CC1(C)Cc2c(c(-c3ccccc3)[nH]c(=O)c2C#N)CS1 | 0 | 1 | 8 | . | 6.8 | . | 1 | 1 | 1.8 | 5
O=C(Cc1ccc([N+](=O)[O-])cc1)Nc1ccc2c(c1)OCO2 | -8 | 4 | -2 | 5.9 | ? | i | 11 | 15 | -2.1 | 19
Cc1cc(N(C)C)c(C#N)c(=O)[nH]1 | -5 | . | 6 | . | -1.1 | . | . | . | . | 7
CCOC(=O)N1CCN(S(=O)(=O)c2ccc(C)c([N+](=O)[O-])c2)CC1 | -17 | -2 | 11 | 0.4 | 4.4 | i | 12 | 10 | 1.0 | 0
COc1ccc(Cl)cc1N1CC(C(=O)Nc2nccs2)CC1=O (stereo not drawn) | -1 | 4 | 0 | . | 3.5 | . | . | . | . | -5
c1ccc(-c2nc3nonc3nc2-c2ccccc2)cc1 | -65 | 135* | 65 | . | 1.7 | . | . | . | . | 2
Cc1ccc(N(CC(=O)NCc2ccccc2)C(=O)c2csnn2)c(C)c1 | 0 | 0 | 0 | 4.2 | 2.7 | . | -2 | -8 | -0.9 | -1

A portion of the library; the hit share may differ from the screen's.
